# Screening data from PubChem BioAssay.
# Mtb bLac sens = beta-lactam sensitization of Mtb H37Rv, H37Rv. inhibition, % at 25 µM. M. tuberculosis H37Rv growth with meropenem, percent inhibition; hits of this screen are not shown here. 330,000 compounds, 0.27% hits;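 active = about 74% or more and at least 40 points above the plate without the antibiotic, then above 30% in a dose series; inconclusive = first-round hits that could not be retested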;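 also: growth measured after seven days incubation then overnight dye step; 0% = bacteria only wells and 100% = bacteria with antibiotic; twin plates without the antibiotic show which effects depend on it; some results filed as inactive read as strong as hits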
# Arbovirus anti = antivirals against arbovirus infection, primary screen, cell-based, full library, 10K replicate subset. arbovirus infection cell-based antiviral screen. inhibition, % at 10 µM. 200,000 compounds, 0.37% hits. AID 1251, 2008;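 active = inhibition from about 30%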;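 also: bluetongue infection of BSR cells; cell survival read as ATP light after 72 h; 0% = infected wells without compound and 100% = uninfected wells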
# YopH PTP inh = YopH tyrosine phosphatase inhibitors, primary screen, biochemical, fluorescence Ex485/Em525 | YopH tyrosine phosphatase [Yersinia enterocolitica] | inhibition, %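 (about 10 µM by stock and volumes)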 | 140,000 compounds, 0.16% hits;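 active = inhibition of 50% or more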;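 also: controls were vehicle for no effect and minimum signal wells for full effect; inactives centre near -20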
# RecA intein inh = Mtb RecA intein splicing inhibitors, primary screen, biochemical, fluorescence, HTS; 290,000 compounds, 0.75% hits; inhibition, %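 (about 9 µM by stock and volumes)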; Protein RecA (Mycobacterium tuberculosis (strain ATCC 25618 / H37Rv)), P9WHJ3; cell-free RecA intein splicing; in the data active = inhibition above about 30%; inconclusive = no clear call, values can overlap the other calls;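 also: 0% = vehicle wells and 100% = reference inhibitor control wells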
# Target sequence (P9WHJ3 whole entry, looked up): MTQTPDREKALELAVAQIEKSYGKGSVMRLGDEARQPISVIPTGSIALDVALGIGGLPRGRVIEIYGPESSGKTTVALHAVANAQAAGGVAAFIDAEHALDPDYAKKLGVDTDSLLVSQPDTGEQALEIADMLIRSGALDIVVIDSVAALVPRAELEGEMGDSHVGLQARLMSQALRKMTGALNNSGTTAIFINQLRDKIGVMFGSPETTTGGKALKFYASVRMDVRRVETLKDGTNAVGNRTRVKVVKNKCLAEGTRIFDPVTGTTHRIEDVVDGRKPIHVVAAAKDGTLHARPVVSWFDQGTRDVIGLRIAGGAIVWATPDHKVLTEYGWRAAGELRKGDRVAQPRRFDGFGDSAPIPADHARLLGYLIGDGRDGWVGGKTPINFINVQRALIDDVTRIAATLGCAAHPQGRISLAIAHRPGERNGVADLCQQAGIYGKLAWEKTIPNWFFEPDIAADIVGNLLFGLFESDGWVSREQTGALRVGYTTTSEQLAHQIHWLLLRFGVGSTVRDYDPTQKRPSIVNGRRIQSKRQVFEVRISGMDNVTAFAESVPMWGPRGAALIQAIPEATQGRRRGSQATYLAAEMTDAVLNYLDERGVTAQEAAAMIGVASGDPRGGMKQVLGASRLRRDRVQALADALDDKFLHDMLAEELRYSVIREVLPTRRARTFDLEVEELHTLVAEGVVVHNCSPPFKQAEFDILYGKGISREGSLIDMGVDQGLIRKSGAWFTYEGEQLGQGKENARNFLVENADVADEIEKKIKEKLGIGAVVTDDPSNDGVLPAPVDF
# Mtb growth = M. tuberculosis H37Rv growth inhibitors, H37Rv strain (AID 1626); M. tuberculosis H37Rv growth inhibition; higher % means a stronger effect; one-dose inhibition, % at 10 µM; IC50 in µM for titrated hits; 220,000 compounds, 0.95% hits;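 active = confirmed in a dose series; inconclusive = inhibition above 80% but not taken into the dose series; inactive = below 80% or under 30% at every dose of the series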;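 also: bacteria incubated seven days before Alamar blue readout; 0% = bacteria only wells and 100% = bacteria with antibiotic wells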
# Arbovirus anti repeat = second read-out of Arbovirus anti, no call of its own (marks repeat the call); inhibition, %; measured here: 10K subset replicate screen; many hits read low in the repeat;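 first of two repeat runs on a subset; 0% = infected and 100% = uninfected wells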
# * = called active by the depositor; ? = inconclusive; . = not tested or not shown; & = joins results of further samples. The list is partial, so the mix of outcomes need not match the whole.
SMILES,Mtb bLac sens,Arbovirus anti,YopH PTP inh,RecA intein inh,Mtb growth,others
C#CCOCCOCCOCCNc1nc(N2CCN(C(=O)[C@H](CCC(=O)O)n3cc(C(N)[C@H](C)CC)nn3)CC2)nc(N2CCN(C(=O)[C@H](Cc3ccc(O)cc3)n3cc(C(N)[C@H](C)CC)nn3)CC2)n1 (stereo partly drawn),-4,5,.,3.7,1%,
CC(C(=O)c1cn(C)c2ccccc12)c1ccccc1 (stereo not drawn),2,-5,-6,-0.7,-3%,
CC1CCCC(NC(=O)C2CCC(CNc3c(N4CCCC4)c(=O)c3=O)CC2)C1C (stereo not drawn),-2,.,.,-1.1,-2%,
CCCC(=O)Nc1ccc(C(=O)NNC(=O)c2ccco2)cc1,-3,11,1,1.2,-8%,
COCc1ccc(CN2CCCC(CO)(Cc3cccc(OC)c3)C2)o1 (stereo not drawn),3,.,.,0.1,-11%,
O=C(c1cnn2c(C(F)F)cc(-c3ccccc3)nc12)N1CCCc2ccccc21,-12,3,-16,.,-4%,
CCOC(=O)C1(Cc2cccc(Cl)c2)CCCN(C(=O)c2ccc(C)nc2)C1 (stereo not drawn),0,8,.,-1.0,-2%,
Cc1cccc(C(=O)NNC(=O)CCC(=O)Nc2cccc(Cl)c2C)c1,2,0,-10,-5.1,.,
COc1ccc(C(CNC(=O)COc2ccc(Cl)cc2C)N2CCCCC2)cc1 (stereo not drawn),8,.,.,1.4,.,
CCOC(=O)c1cc(-c2ccc(OC)cc2)n(CCC(=O)NCCN2CCC(C)CC2)c1C,13,-16,.,-3.1,9%,
CN(Cc1ccccc1)C(=O)COc1ccc2ccccc2c1,-8,.,.,2.2,.,
COc1cc(/C=C/C(=O)O)cc(S(=O)(=O)Nc2cc(Cl)c(Cl)cc2Cl)c1OC,-1,.,.,0.2,0%,
CCCCN1CNC(=S)N(c2cc(C)ccc2C)C1,8,4,-13,-1.3,-4%,
CCc1ccccc1Nc1nc(N)nc(COC(=O)c2cccn2C)n1,-10,2,-14,1.8,-7%,
Cc1nn(Cc2cccc(F)c2)c(C)c1NC(=O)c1c(Cl)cnn1C,4,7,-28,-0.3,-6%,
Cn1c(COc2ccccc2Br)nc2ccccc21,-4,.,.,2.4,.,
Nn1c(SCC(=O)N2CCN(S(=O)(=O)c3ccccc3)CC2)nnc1-c1cccs1,-11,-1,-51,0.4,-13%,
COc1ccc(C2SCC(=O)N2c2c(C)n(C)n(-c3ccccc3)c2=O)cc1 (stereo not drawn),-6,2,-26,-1.3,-8%,
O=C(Nc1cccc2ncccc12)c1ccc([N+](=O)[O-])o1,100,.,.,-10,.,
CCCCC1(C)NC(=O)N(CC(=O)Nc2ccc(S(=O)(=O)N3CCOCC3)cc2)C1=O (stereo not drawn),-6,-1,-29,-7.6,-4%,

# Arranged by molecular weight (descending): part of the list above
SMILES,Mtb bLac sens,Arbovirus anti,YopH PTP inh,RecA intein inh,Mtb growth,others
COc1cc(/C=C/C(=O)O)cc(S(=O)(=O)Nc2cc(Cl)c(Cl)cc2Cl)c1OC,-1,.,.,0.2,0%,
CC1CCCC(NC(=O)C2CCC(CNc3c(N4CCCC4)c(=O)c3=O)CC2)C1C (stereo not drawn),-2,.,.,-1.1,-2%,
O=C(c1cnn2c(C(F)F)cc(-c3ccccc3)nc12)N1CCCc2ccccc21,-12,3,-16,.,-4%,
O=C(Nc1cccc2ncccc12)c1ccc([N+](=O)[O-])o1,100,.,.,-10,.,
CC(C(=O)c1cn(C)c2ccccc12)c1ccccc1 (stereo not drawn),2,-5,-6,-0.7,-3%,

# Returning to the listing, starting two compounds before the break.
SMILES,Mtb bLac sens,Arbovirus anti,YopH PTP inh,RecA intein inh,Mtb growth,others
O=C(Nc1cccc2ncccc12)c1ccc([N+](=O)[O-])o1,100,.,.,-10,.,
CCCCC1(C)NC(=O)N(CC(=O)Nc2ccc(S(=O)(=O)N3CCOCC3)cc2)C1=O (stereo not drawn),-6,-1,-29,-7.6,-4%,
COC(=O)CCn1nnc(-c2cccs2)n1,1,6,-29,0.5,-5%,
COc1ccc(C)cc1Nc1n[n+](-c2ccccc2)c(-c2ccc(OC)c(OC)c2OC)s1,99,.,.,9.6,.,
O=C(Nc1ccccc1)c1cccc(S(=O)(=O)NCc2ccco2)c1,-6,5,7,0.6,-8%,
Cc1cccc(NC(=O)c2cc(Cl)nc3ccccc23)n1,-12,.,.,5.9,-2%,
CCOC(=O)c1cnn(-c2nc(C)cc(C)n2)c1N,-7,-4,2,0.9,-8%,
Cc1ccc(N(CC(=O)NCc2cccnc2)S(C)(=O)=O)cc1C,-4,7,-31,-2.2,0%,Arbovirus anti repeat=4
Cc1coc2c1c(C)cc1oc(=O)c(CC(=O)NCCCCCC(=O)O)c(C)c12,6,.,.,-2.0,.,
O=C1C=C(c2ccc(Cl)cc2)OC2(CCCC2)O1,-5,-1,-34,3.4,-7%,
CN(C)CCCN1C(=O)c2cccc3cccc(c23)C1=O,-5,.,.,0.4,.,
CCn1c(SCC(=O)N2CCN(C(=O)c3ccco3)CC2)nnc1C(C)C,0,1,.,-1.8,-9%,
COC(=O)c1ccc(NC(=S)Nc2ccccc2)cc1,74,-4,-28,1.1,53%,
COCC(C)n1c(SCC(=O)NCCC2=CCCCC2)nc2ccccc2c1=O (stereo not drawn),11,-11,10,-1.7,-5%,
CCOC(=O)c1cc(-c2csc(COc3ccccc3)n2)on1,100,.,.,-1.6,1.8µM*,
CCC(=O)Nc1ccc(C(=O)NNC(=O)c2cccs2)cc1,-7,1,-23,-0.4,-5%,
CCc1nc(N2CCN(S(C)(=O)=O)CC2)c2c3c(sc2n1)CCCC3,2,-28,.,2.1,-1%,
COc1cc(/C=C2\SC(=O)N(c3cccc(Cl)c3)C2=O)cc([N+](=O)[O-])c1O,.,14,.,.,18%,
NS(=O)(=O)c1ccc2nc(NC(=O)CS(=O)(=O)c3ccccc3)sc2c1,4,.,.,-3.2,.,
CCC(=O)N(C)CCc1cc2c(c(OC)c1/C=N/NC(=O)c1ccncc1)OCO2,99,.,.,-3.5,?,
Cc1ccc(NS(=O)(=O)c2c(C(=O)N3CCOCC3)c(C)n(C)c2C)cc1,?,.,.,-1.5,.,
CCC(OC(=O)C(NC(=O)c1ccccc1)c1ccccc1)C(=O)Nc1cc(C)on1 (stereo not drawn),-6,-1,3,-0.7,-8%,
Cc1ccc(NC(=O)C2CCN(S(=O)(=O)c3ccc4c(c3)C(C)(C)C(=O)N4C)CC2)c(C)c1,-6,.,.,-0.2,.,
Cc1ccc(-n2nc3c(=O)n(C(C)C(=O)NC4CC4)nc(C)c3c2C)cc1 (stereo not drawn),-6,.,.,0.3,.,
COc1ccc(NS(=O)(=O)c2ccc(N)cc2)nn1,6,-6,-18,1.6&-2.1,.,
CCCCC(=O)N/N=C(C)/C=C/c1ccccc1F,.,-2,.,-2.5,9%,
ON1C(c2ccccc2C(F)(F)F)N(O)[C@H]2CCCC[C@H]21 (stereo partly drawn),3,-3,-37,-6.2,-2%,
CCOc1cc(C(=O)Nc2ccon2)cc(OCC)c1OCC,4,-1,-12,-0.8,4%,
Cc1cc(C(=O)CSc2nnnn2-c2ccccc2)c(C)n1CC1CCCO1 (stereo not drawn),-1,-1,-20,-0.5,-6%,
C#CCOCCOCCOCCNc1nc(N2CCN(C(=O)CCCCCCCCCCNC(=O)Cn3cc(C[C@@H](C)O)nn3)CC2)nc(N2CCN(C(=O)CCCCCCCCCCNC(=O)[C@H](CCCN=C(N)N)n3cc(C[C@@H](C)CC)nn3)CC2)n1,100,.,.,3.4,.,
Cc1cc(C)c(C)c(S(=O)(=O)NCc2ccc(C(=O)N3CCCCC3)cc2)c1C,-4,1,2,0.0,0%,
CCOc1ccccc1-n1c(=S)sc2c(=O)n(-c3ccc(F)cc3)c(SCC(=O)O)nc21,-2,.,.,-5.2,.,
Cc1cnc(C(=O)NC(C)CCc2ccccc2)cn1 (stereo not drawn),4,3,.,-0.6,1%,
CCOC(=O)N1CCC(Nc2c(NCCCN(CC)Cc3ccccc3)c(=O)c2=O)CC1,-5,2,-46,-0.2,0%,
COCCn1c(SCC(=O)N(C)c2ccccc2)nc2c([nH]c3ccccc32)c1=O,12,.,.,-4.1,.,
O=C(Nc1ccc2c(c1)OCCO2)c1oc2ccccc2c1NC(=O)C1CC1,-6,-4,.,0.7,0%,
COC(=O)C1=C(NC(=O)c2ccccc2C)CCS1,1,-2,.,-0.6,8%,
O=C(Nc1ccc2c(c1)OCCO2)N1CCN(c2ccccc2)CC1,-1,2,-36,1.2,-1%,
O=c1[nH]c(=O)n(-c2ccc(F)cc2)c(O)c1/C=C1\C=Nc2ccccc21,-3,.,.,0.3,.,
CCCCCC(=O)N[C@@H](c1ccccc1)[C@@H](O)C(=O)O[C@H]1C[C@@]2(O)[C@@H](OC(=O)c3ccccc3)C3[C@](C)(C(=O)[C@H](O)C(=C1C)C2(C)C)[C@@H](OC1OCC(O)C(O)C1O)C[C@H]1OC[C@@]31OC(C)=O (stereo partly drawn),-3,.,.,5.7,.,
Cc1cc(OCC(O)CN2CCc3ccccc3C2)cc(C(C)C)c1 (stereo not drawn),14,.,.,0.3,.,
O=c1cccc2n1CC1CC2CN(CC(O)CN2CC3CC(C2)c2cccc(=O)n2C3)C1 (stereo not drawn),2,.,.,-1.1,.,

# Of the compounds above, these contain an NH in an aromatic ring.
SMILES,Mtb bLac sens,Arbovirus anti,YopH PTP inh,RecA intein inh,Mtb growth,others
COCCn1c(SCC(=O)N(C)c2ccccc2)nc2c([nH]c3ccccc32)c1=O,12,.,.,-4.1,.,
O=c1[nH]c(=O)n(-c2ccc(F)cc2)c(O)c1/C=C1\C=Nc2ccccc21,-3,.,.,0.3,.,

# The listing continues.
SMILES,Mtb bLac sens,Arbovirus anti,YopH PTP inh,RecA intein inh,Mtb growth,others
COC(=O)c1cnn(-c2ccc(Cl)cc2)c1/C=N/NC(N)=S,-7,.,.,0.7,0%,
Cn1c(=N)n(CC(=O)C(C)(C)C)c2ccccc21,-5,5,-45,-0.4,6%,
COc1ccc(/C=C2\Sc3ccc(C(=O)N4CCc5ccccc5C4)cc3N(C)C2=O)cc1,98,3,-8,-3.0,24%,
Cc1ccc2nc(-c3ccc(NC(=O)CN4C(=O)NC(C)(c5ccc(OC(F)F)cc5)C4=O)cc3)sc2c1 (stereo not drawn),6,-21,-17,-3.5,0%,
O=C(O)CCCN=Cc1c(O)c2ccccc2oc1=O,-5,29,.,-1.4,5%,
COc1cc(OC)c(C(=O)Nc2ccc(S(=O)(=O)N3CCCCC3)cc2)cc1OC,0,.,.,2.0,.,
COc1ccc(/C=N/NC(=O)c2cccnc2)cc1CN1CCN(c2ccc(F)cc2)CC1,-1,-2,.,1.6,-1%,
Cc1cccc(Nc2cnn(C34CC5CC(CC(CC(=O)O)(C5)C3)C4)c(=O)c2Cl)c1,-8,8,-31,1.8,1%,
O=C(OCc1nc2ccsc2c(=O)[nH]1)c1cccc(S(=O)(=O)N2CCOCC2)c1,-5,.,.,-3.2,.,
COc1cccc(CNc2ccccn2)c1O,-1,.,.,-1.8,.,
Cc1c(NC(=O)NC2CCCCC2)cccc1[N+](=O)[O-],-6,3,.,.,-1%,
COc1ccc(NC(=O)C2=NNC(=O)CC2)cc1S(=O)(=O)N1CCCCC1,-3,.,.,-0.9,-10%,
Cc1cc(S(=O)(=O)Nc2ccc(C(=O)NCC(c3ccco3)N3CCCC3)cc2)ccc1F (stereo not drawn),-26,.,.,1.0,.,
CN=C1CN(O)C(c2ccccc2)=c2cc(Cl)ccc2=N1,4,.,.,-2.3,3%,
N#Cc1c(-c2ccccc2)nc(N2CCN(Cc3ccccc3)CC2)[nH]c1=O,1,.,.,-0.8,.,
COc1ccc(-n2nnc3c(=O)n(CC(=O)N4CCC(Cc5ccccc5)CC4)cnc32)cc1,1,-1,.,1.2,-3%,Arbovirus anti repeat=5
O=c1c2ccccc2nc(-c2ccco2)n1Cc1ccccc1,14,7,-12,5.5,0%,
CC(=O)NCC(=O)NC(C(=O)Nc1ccc2c(c1)OCCO2)c1ccccc1 (stereo not drawn),-6,-1,-23,0.4,-6%,
